LASV entry inh – qHTS for Inhibitors of binding or entry into cells for Lassa Virus; Lassa virus pseudotype entry inhibition, cell reporter; control for the full effect not named in the record; Potency, µM (doses to about 37.9 µM), without a hit: top-dose activity change, negative = inhibition, hits mostly inhibitors; hit rate 1.2% among 300,000; active means well fitted inhibition curve with a large enough effect; inconclusive means small, poorly fitted or top-dose-only effect, or effect the other way; inactive means flat fitted curve, though single readings scatter; tested in HEK293 cells; further: on the % scale 0 is the no-effect control and ±100 the full control effect; nearly all actives have a fitted effect of over 50% in size; luciferase read-out
SARS PLP yeast – qHTS of Yeast-based Assay for SARS-CoV PLP; S. cerevisiae expressing SARS-CoV PLpro, growth rescue; control for the full effect not named in the record; Potency, µM (titrated, usually from 32.9 µM), for inactives: at the top dose activity, positive = growth rescue; hit rate 0.19% among 330,000; further: 0% is about no effect; nearly all actives have a fitted effect of over 55% in size; growth read by luminescence after 48 h
Cruzain Triton – qHTS Assay for Promiscuous and Specific Inhibitors of Cruzain (with detergent). Cruzipain (Trypanosoma cruzi), P25779. purified cruzain, Z-FR-AMC fluorescence, 0.01% Triton. Potency, µM, inactives show max response, negative = inhibition, hits mostly inhibitors. hit rate 0.43% among 200,000. AID 1478, 2009; active means well fitted curve in the direction sought with a large enough effect; inconclusive means small, poorly fitted or top-dose-only effect, or another doubt; inactive means no such curve, though single readings can be large; an effect the other way counts as inactive or inconclusive;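 further: plate controls were neutral wells for no effect and buffer without enzyme for full effect; nearly all actives have a fitted effect of over 40% in size; top concentration of the series not given in the record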
Target sequence (P25779 123-467 limits assumed): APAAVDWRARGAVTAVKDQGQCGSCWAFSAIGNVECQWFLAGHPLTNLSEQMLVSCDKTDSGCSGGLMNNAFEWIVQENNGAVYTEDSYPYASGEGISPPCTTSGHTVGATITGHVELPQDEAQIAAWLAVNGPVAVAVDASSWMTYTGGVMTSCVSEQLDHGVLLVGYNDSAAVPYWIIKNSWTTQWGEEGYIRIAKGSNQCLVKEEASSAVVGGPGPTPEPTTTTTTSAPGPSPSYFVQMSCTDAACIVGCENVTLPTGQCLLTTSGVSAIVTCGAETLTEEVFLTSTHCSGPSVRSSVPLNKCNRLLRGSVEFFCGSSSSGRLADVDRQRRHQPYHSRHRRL
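In this qHTS format, compounds are incubated with 1.5 nM cruzain for 15 min at room temperature before 2 uM Z-FR-AMC is added. Release of AMC is followed at 360/450 nm, and progress is taken as the 60 s fluorescence difference.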
NS1 inh – qHTS Assay for Inhibitors of Influenza NS1 Protein Function | S. cerevisiae slowed by influenza A NS1, growth recovery by OD600 | Potency, µM (titrated, usually from 46.1 µM), without a hit: top-dose activity, positive = more growth | hit rate 0.4% among 270,000; further: actives are rising curves; nearly all actives have a fitted effect of over 50% in size
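A cell-based growth assay was used: compounds that relieve NS1-induced slow growth of budding yeast raise OD600. Assay medium was yeast nitrogen base with ammonium sulphate and -URA supplement, pH 6.0, with 2% galactose.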
RE007 growth inh – qHTS Assay for Inhibitors of the HIV-1 protein Vpr | S. pombe RE007 Vpr strain, BacTiter-Glo ATP luminescence, 24 h; control for the full effect not named in the record | Potency, µM (doses to about 92.2 µM), for the others: at the top dose activity change, negative = less growth | hit rate 0.21% among 360,000 | AID 651644, 2012; active = well fitted falling curve with a large enough effect; inconclusive = small, poorly fitted or top-dose-only effect; inactive = no such curve, though single readings can be large or run the other way;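 further: on the % scale 0 is the no-effect control and ±100 the full control effect; nearly all actives have a fitted effect of over 50% in size; the assay follows cell death caused by Vpr and the record does not say whether a fall means rescue or toxicity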
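Fission yeast strain RE007, carrying one chromosomally integrated HIV-1 vpr copy, was seeded at OD 0.01 in PMG+AL medium with 23 nL pinned compound. After 24 h at 30 °C and 99% humidity, viability was read by BacTiter-Glo luminescence.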
Cruzain noTriton – qHTS Assay for Promiscuous and Specific Inhibitors of Cruzain (without detergent); Cruzipain (Trypanosoma cruzi), P25779; purified cruzain, Z-FR-AMC fluorescence, no detergent; Potency, µM, inactives show max response, negative = inhibition, usual class: inhibitors; hit rate 2.3% among 200,000; AID 1476, 2009; active means well fitted curve in the direction sought with a large enough effect; inconclusive means small, poorly fitted or top-dose-only effect, or another doubt; inactive means no such curve, though single readings can be large; an effect the other way counts as inactive or inconclusive;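 further: plate controls were enzyme without inhibitor for no effect and buffer without enzyme for full effect; nearly all actives have a fitted effect of over 40% in size; top concentration of the series not given in the record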
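Detergent-free condition (0.00005% Triton X-100) in acetate buffer pH 5.5 with DTT. 1.5 nM enzyme and compound were pre-mixed 15 min, then 2 uM Z-FR-AMC substrate added; reaction progress from fluorescence change between first and third reads (60 s).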
MARV entry inh – qHTS for inhibitors of binding or entry into cells for Marburg Virus. Marburg virus pseudotyped entry inhibition, cell reporter; control for the full effect not named in the record; about a third of the inactives were read at about 46 µM. Potency, µM (top dose mostly 37.8 µM), without a hit: at the top dose activity change, negative = inhibition, hits mostly inhibitors. hit rate 1.8% among 300,000. AID 540276, 2011; active = well fitted inhibition curve with a large enough effect; inconclusive = small, poorly fitted or top-dose-only effect, or effect the other way; inactive = flat fitted curve, though single readings scatter; tested in HEK293 cells; about a fifth of its hits are not listed in these tables; further: on the % scale 0 is the no-effect control and ±100 the full control effect; luciferase read-out
2A StopGo – High Throughput Screening for Foot and Mouth Disease Virus Antivirals | human cells with a luciferase reporter of 2A StopGo recoding; control for the full effect not named in the record | Potency, µM (series often up to 57.9 µM), inactives show top-dose signal change, negative = less light | hit rate 1.2% among 410,000; active = well fitted falling curve with a large enough effect; inconclusive = small, poorly fitted or top-dose-only effect; inactive = no such curve, though single readings can be large or run the other way; tested in HEK293T cells; further: on the % scale 0 is the no-effect control and ±100 the full control effect; nearly all actives have a fitted effect of over 45% in size; luciferase light after 4 h
Starred values were filed as active, the others as inactive; u = inconclusive; x = no result given; & = joins results of further samples; [ ] = another dose, or the depositor's remark. Unless noted, the call rests on the fitted dose curve; in most records, active means well fitted rising curve with a large enough effect; inconclusive means small, poorly fitted or top-dose-only effect; inactive means no such curve, though single readings can be large or run the other way. Potency means the concentration at half of the fitted maximal effect. No enrichment for hits (roughly 4.8% active in at least one column).

mol,LASV entry inh,SARS PLP yeast,Cruzain Triton,NS1 inh,RE007 growth inh,Cruzain noTriton,MARV entry inh,2A StopGo
CN(C(=O)c1c[nH]c(=O)cc1C(F)(F)F)c1ccc(Cl)cc1,x,0%,x,-1%,9%,x,x,-11%
CC(=O)N(Cc1cccnc1)c1nc2c(C)c(C)ccc2s1,u,x,-6.5%,x,x,u,x,10%
CC1(C)CC(=O)CC(C)(C)N1OC(=O)c1ccccn1,3%,0%,1.1%,-22%,-15%,12%,-1%,-19%
O=C(Nc1ccccc1Cl)c1ccccc1S(=O)(=O)c1ccccc1[N+](=O)[O-],13%,-10%,-1.9%,2%,x,-2%,u,-18%
CC(NC(=O)c1ccco1)c1nc(-c2ccccc2)no1 (stereo not drawn),19%&1%[46.1 µM],0%,-0.7%,10%,4%,-8%,0%&5%[46.1 µM],-6%&0%
COc1cc(C(=O)Oc2ccccc2/C=N/NC(=O)c2ccc(Cl)cc2)cc(OC)c1OC,11µM*,4%,-5.7%,-1%,-1%,1%,12µM*,7%
Cc1cc(C)c(C#N)c(SCc2nnc(-c3ccccc3[N+](=O)[O-])o2)n1,u,0%,x,-7%,18%,x,u,15%
CCN1CCN(C(=O)c2ccc(OCC(=O)Nc3ccc(F)cc3)c(OC)c2)CC1,14%,-2%,x,x,4%,x,18%[46.1 µM],-23%
NC(=O)c1oc2ccccc2c1NC(=O)c1ccco1,x,-4%,1.1%,-58%,-16%,-4%,x,-27%
CCOc1cc(/C=C2/C(=N)N3OC(C)=CC3=NC2=O)ccc1OCCOc1ccccc1,u,4%,5.7%,1%,0%,-8%,u,17%
CCCCNC(=O)CSc1nnc(Cc2ccc(Cl)c(Cl)c2)c(=O)[nH]1,1%[46.1 µM],0%,x,17%,12%,x,0%[46.1 µM],-12%
O=C(OC(C(=O)NCc1ccc2c(c1)OCO2)c1ccncc1)c1ccc(Cl)nc1 (stereo not drawn),0%,-1%,x,x,-10%,x,4%[46.1 µM],-5%
COCCCNC(=O)c1c(N)n(/N=C/c2cccnc2)c2nc3ccccc3nc12,-9%,0%,-2.0%,9%,7%,u,u,-18%
CC1=C(c2ccc(C)c(C)c2)S(=O)(=O)N=C1N1CCC(C(=O)NCc2ccccc2C)CC1,-7%[46.1 µM],x,-1.6%,x,x,18%,x,-27%
CC1CCC/C(=C\Nc2ccc(O)cc2)C1=O (stereo not drawn),-1%,7%,-1.1%,9%,4%,-6%,17%,33%[activator]
COc1ccc(/C=N/OCC(=O)Nc2ccc3c(c2)OCO3)c(OC)c1,-23%,-2%,x,x,7%,x,-6%[46.1 µM],-1%
Cc1ccc(-n2nnnc2C2CCN(S(=O)(=O)c3ccc(OC(F)(F)F)cc3)CC2)cc1,8%[46.1 µM],x,-1.9%,x,x,2%,-4%[46.1 µM],-8%
CC(Oc1ccc(F)cc1)C(=O)Nc1cc(S(=O)(=O)N2CCCCC2)ccc1N1CCOCC1 (stereo not drawn),u,-1%,x,x,-10%,x,u,-13%
CCc1ccc2nc(N(CCCN(C)C)C(=O)c3ccc(S(=O)(=O)N4CCCc5ccccc54)cc3)sc2c1,13µM*,-2%,x,6%,7%,x,u,u
CCOC(=O)C1=C(c2ccccc2)N(C)C(=O)NC1c1ccc(OC(F)F)c(OC)c1 (stereo not drawn),-12%,9%,-4.7%,-1%,-4%,28%,u,u
Cc1ccc(S(=O)(=O)N2CCN(C(=O)CC3CCCC3)CC2)cc1,-16%,-2%,-3.9%,-15%,8%,3%,-10%,x
CCC1(C)NC(=O)N(CC(=O)c2cc(C)n(C3CC3)c2C)C1=O (stereo not drawn),11%,1%,x,x,11%,x,9%[46.1 µM],5%
COCCn1c(SCc2ccc(OC)c(F)c2)nc2ccccc2c1=O,-19%[46.1 µM],-7%,x,x,13%,x,u,-5%
C=CCc1c(C)nc2c(OC)cccc2c1Cl,6%,-1%,x,-8%,-10%,x,1%,7%
COCCNC(=O)C(c1ccccc1)N(CCOC)C(=O)Cn1nnc2ccccc21 (stereo not drawn),1%,3%,8.3%,2%,-15%,2%,8%[46.1 µM],8%
Cc1ccc(C(=O)N2c3ncnn3C3(CCCCC3)[C@@H]3CCCC[C@@H]32)cc1,0%[46.1 µM],x,-4.6%,x,x,10%,u,u
COc1cccc(-c2nc(CS(=O)(=O)CC(=O)NCCC(C)C)c(C)o2)c1,x,21%,-4.6%,-12%,-8%,u,x,-24%
O=C1NC(=Nc2cccc([N+](=O)[O-])c2)SC1(CO)CO,7%[46.1 µM],0%,x,1%,-16%,x,3%[46.1 µM],-21%
Cc1ccc(C(=O)NC2CCN(CC(=O)NC3CCC(C)CC3)CC2)cc1 (stereo not drawn),13%[46.1 µM],-2%,x,3%,8%,x,-18%[46.1 µM],12%
COc1cc(C)nc(N(C)C(C)=O)n1,10%,0%,0.5%,u,14%,3%,u,-3%
COc1ccc(S(=O)(=O)N2CCc3ccccc32)cc1C(=O)O,x,0%,x,12%,-21%,x,x,-2%
COc1ccc(N2N=NN(C(C)C)C2=C(Cl)c2nnnn2-c2ccc(OC)cc2)cc1,-23%,x,x,x,1%,x,u,19%
Cc1ccc(Cc2cnc(NC(=O)c3cccs3)s2)cc1,u,u,-7.2%,-49%,u,-8%,u,23%
CCCCC1=CC2=CC(=O)C(C)(OC(=O)C3CCCC3)C(=O)C2=CO1 (stereo not drawn),x,6%,-2.1%,-6%,9%,6%,x,-19%
CCN(C(=O)CSc1nc2cc(Cl)ccc2c(=O)n1CC(C)C)C1CCS(=O)(=O)C1 (stereo not drawn),22%,2%,x,x,-16%,x,0%,-13%
COc1ccccc1Cn1c(C(C)C)nc2ccccc21,x,0%,x,1%,-1%,x,x,-18%
CN1C(=O)N(C)C(=O)C2(Sc3ccccc3C2=O)C1=O,-12%,3%,2.4%,-41%,7%,5%,9%,-7%
CS(=O)(=O)N1CCN(c2ccc(NC(=O)CSc3ccc(Cl)cc3)cc2)CC1,-1%,6%,5.6%,8%,12%,4µM*,-6%,x
Cc1ccc(-c2nc3c4c(-c5ccccc5)c(-c5ccccc5)oc4ncn3n2)cc1,u,x,0.3%,x,x,-1%,x,-13%
COCCNc1sc(S(=O)(=O)c2ccc(C)cc2)nc1S(=O)(=O)c1ccc(C)cc1,u,x,-2.3%,x,x,-2%,-26%[46.1 µM],0%
C/C=C/C(=O)N1CC2(CC(c3cccc(NC(=O)CC)c3)=NO2)C[C@H]1C(N)=O (stereo partly drawn),x,0%,x,9%,11%,x,x,-4%
CCCN(CCC)CCCNC(=O)c1cc2c(-c3ccc(OC)c(OC)c3)nn(C)c2s1,-21%&-24%[46.1 µM],0%,-15%,1%,-4%,-12%,u,42%&-11%[activator]
O=c1c2cc3c(cc2n(Cc2ccc(Cl)cc2)c(=O)n1Cc1nc(-c2ccccc2)no1)OCO3,-5%[46.1 µM],x,-2.2%,x,x,-4%,x,-21%
CC1CCCCC1NC(=O)C1CCN(C(=O)c2sccc2-n2cccc2)CC1 (stereo not drawn),x,-1%,-2.8%,8%,-3%,0%,x,-8%
Cc1ccc(-c2csc(/C=C3\SC(C)C(=O)N3CC(=O)Nc3ccccc3F)n2)cc1 (stereo not drawn),x,-1%,x,3%,1%,x,x,-4%
O=C(Cn1ccc(C(F)(F)F)n1)N/N=C/c1ccc2c(c1)OCO2,18%,-8%,-6.3%,3%,43%,4%,23%,41%[activator]
CCOC(=O)c1cccc2c1N[C@@H](c1ccc(F)cc1)[C@H]1CC=C[C@@H]21,-28%[46.1 µM],x,-6.7%,x,x,-16%,-12%[46.1 µM],-13%
Cc1ccc(NC(=O)Cn2c(=O)c3cccn3c3ccccc32)cc1,x,3%,x,-5%,18%,x,x,-15%
CCOCCCNS(=O)(=O)c1ccc2c(c1)oc(=O)n2CC(=O)OCC,1%,5%,-1.7%,4%,-6%,-2%,0%,11%
C=CCn1cnc2scc(-c3ccccc3)c2c1=O,-15%,6%,8.0%,-11%,-6%,1%,-6%,0%
O=C(Nc1nccs1)c1ccc(Br)o1,11%,-32%,-3.0%,-2%,8%,3%,22%,x
CCCn1c(SCC(=O)NCCc2ccccc2)nnc1-c1cccnc1,-7%,4%,3.1%,-11%,12%,-2%,-3%[46.1 µM],5%
Cc1cnc(NC(=O)c2cc3c(C)nn(-c4ccccc4)c3s2)s1,0%,-5%,-5.0%,18%,-9%,1%,-1%,-9%
COc1ccc(CNC(=O)c2ccc(-c3nc(CSc4ccccc4)c(C)o3)cc2)cc1OC,1%[46.1 µM],x,-4.7%,x,x,u,x,-4%
CCC1(c2ccccc2)NC(=O)N(CC(=O)N(C)Cc2c(F)cccc2Cl)C1=O (stereo not drawn),-10%,9%,x,u,0%,x,16%[46.1 µM],14%
c1ccc2[nH]c(-c3ccc4c(c3)OCO4)nc2c1,u,x,x,x,40µM*,x,u,-12%
CCCn1c(SCC(=O)NCCc2ccccc2)nnc1-c1ccccn1,-17%,-6%,9.0%,-5%,15%,4%,14%,3%
C[C@H](NC(=O)c1ccccc1Cl)C(=O)OC(C(=O)Nc1cc(C(F)(F)F)ccc1Cl)c1ccccc1 (stereo partly drawn),-16%,5%,u,25%,2%,-30%,-16%,-11%
O=C(NCCO)C1CCN(S(=O)(=O)c2ccc(F)cc2)CC1,0%,-1%,4.3%,-8%,4%,-3%,u,-9%
Cc1ccc(CN2C(=O)c3ccccc3Sc3ccc(C(=O)NC4CCCCC4)cc32)cc1,-19%[46.1 µM],x,0.1%,x,x,u,x,3%
Cc1c(Cl)cccc1NC(=O)c1ccc2c(c1)nnn2C1CCCC1,u,x,-0.8%,x,x,-2%,x,16%
O=C(CCl)N(CCc1ccccc1)CCc1ccccc1,u,-18%,x,-22%,4%,x,u,28µM*
COc1cc(/C=C2\SC(=O)NC2=O)ccc1Oc1cnccn1,2%,0%,x,1%,10%,x,-11%,15%
